Assay outcomes deposited in PubChem BioAssay by National Center for Advancing Translational Sciences (NCATS).
GLA inh pH 4.5 – qHTS Assay for Inhibitors of Human alpha-Galactosidase at pH 4.5 | Alpha-galactosidase A (Homo sapiens), P06280 | purified enzyme, 4-MU-alpha-Gal fluorescence, pH 4.5 | activity change, negative = inhibition, % at 105 µM | 230,000 tested, under 10 active; inconclusive = small, poorly fitted or top-dose-only inhibition, or a rising curve; inactive = flat fitted curve, though single readings scatter; no compound was filed as active;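 also: 0% = full activity with enzyme and -100% = basal without enzyme; dose as in the result columns while the protocol names 77 µM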
Target sequence (P06280 whole entry, looked up): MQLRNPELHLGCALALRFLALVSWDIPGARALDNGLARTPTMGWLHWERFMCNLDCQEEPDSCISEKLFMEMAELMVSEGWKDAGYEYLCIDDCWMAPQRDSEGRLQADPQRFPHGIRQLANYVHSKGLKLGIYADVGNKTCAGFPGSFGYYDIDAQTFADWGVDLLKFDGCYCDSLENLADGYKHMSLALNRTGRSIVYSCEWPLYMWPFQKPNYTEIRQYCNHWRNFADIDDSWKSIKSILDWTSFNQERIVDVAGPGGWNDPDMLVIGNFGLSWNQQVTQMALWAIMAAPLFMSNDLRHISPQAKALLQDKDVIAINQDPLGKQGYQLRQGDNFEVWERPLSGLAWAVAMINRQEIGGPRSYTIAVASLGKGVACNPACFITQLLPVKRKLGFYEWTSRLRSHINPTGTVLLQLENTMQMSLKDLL
miR-21 FLuc – qHTS Assay for Modulators of miRNAs and/orActivators of miR-21 | HeLa miR-21 FLuc reporter, luciferase, 48 h | Potency, µM (titrated, usually from 38.3 µM), inactives show at the top dose reporter change, positive = more light | 340,000 tested, under 10 active | AID 2288, 2010; active = well fitted rising curve with a large enough effect; inconclusive = small, poorly fitted or top-dose-only effect; inactive = no such curve, though single readings can be large or run the other way;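 also: % of control where 0% means no effect; miR-21 action dims this reporter so a rising signal means less miR-21 action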
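HeLa cells endogenously expressing miR-21, stably carrying CMV-driven firefly luciferase with a downstream miR-21 binding site, 2000 cells/well. Titrations up to approximately 40 uM, 48 hours; luciferase luminescence read.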
Rango release inh – qHTS Assay for Inhibitors of RanGTP induced Rango (Ran-regulated importin-beta cargo) - Importin beta complex dissociation; Potency, µM (titrated, usually from 46.1 µM), for inactives: top-dose activity change, negative = inhibition; AID 540253, 2011; Biochemical FRET Rango-importin beta, RanGTP-induced dissociation; 340,000 tested, 0.071% active; Snurportin-1 (Homo sapiens) + GTP-binding nuclear protein Ran (Homo sapiens) + Importin …; active means falling FRET ratio curve, often poorly fitted, with flat reads before Ran was added; inconclusive means other falling curves, or compound fluorescence or quenching; inactive means flat or rising ratio curve;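 also: potency is read from the fitted curve at half-maximal effect; % of control where 0% means no effect; nearly all actives have a fitted effect of over 45% in size; -100% = wells without RanGTP and RCC1; the record marks most hits as doubtful in a second field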
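Recombinant Rango FRET biosensor (EYFP–snurportin 1 IBB–cerulean CFP10) at 0.1 uM premixed with 0.25 uM importin beta in PBS, 1 mM DTT, 0.02% Tween-20, 0.1% BSA. Compound added 5 min; RanGTP-RCC1 (0.6 uM Ran, 2 mM GTP, 0.2 uM RCC1) then triggers release, read at 45 min.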
Rango-impB inh – qHTS Assay for Inhibitors of Rango (Ran-regulated importin-beta cargo) - Importin beta complex formation; Potency, µM (top dose mostly 92.2 µM), inactives show at the top dose inhibition of complex formation; Importin subunit beta-1 (Homo sapiens), Q14974; Rango CFP/YFP FRET sensor + importin beta, 45 min; AID 540263, 2011; 340,000 tested, 0.031% active; active = rising FRET ratio curve, often small or poorly fitted; inconclusive = mostly compound fluorescence or quenching in the first reads; inactive = flat curves in all reads;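 also: potency is read from the fitted curve at half-maximal effect; 0% = DMSO wells and 100% = buffer wells lacking importin beta; nearly all actives have a fitted effect of over 15% in size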
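Inhibition scored from the CFP 486 nm/YFP 530 nm FRET ratio 45 min after adding 0.125 microM importin beta to 50 nM Rango biosensor preincubated 5 min with compound (room temperature, PBS with DTT, Tween-20, BSA). No-importin wells as positive control.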
* marks the source's active call; other numbers are inactive results; u = inconclusive; x = not tested or not shown. An excerpt; the hit share may differ from the screen's.

Compound | GLA inh pH 4.5 | miR-21 FLuc | Rango release inh | Rango-impB inh
OC(COc1ccc(Cl)cc1)CN1CCN(c2ccccc2)CC1 (centres undefined) | x | 2% | -15% | 0.0%
Cc1ccc(-n2c(-c3ccccc3)c[nH]c2=S)cc1 | 1 | 21% | 1% | -3.9%
CCOC(=O)c1c(CC(C)C)csc1NC(=O)COC(=O)C1=NNC(=O)CC1 | x | x | -6% | u
COc1ccc(C2C3=C(CC(C)(C)CC3=O)Nc3nc(C)nn32)cc1OC (centres undefined) | 19 | 0% | 1% | 5.4%
Cc1oc2ccc(Br)cc2c(=O)c1-c1nn[nH]n1 | 10 | -1% | -9% | 0.4%
Cc1cc(C)cc(C(=O)NCC(=O)OCC(=O)NCc2ccco2)c1 | -8 | 0% | 1% | 0.1%
COc1ccccc1CN1CCCC(CN(CCN(C)C)C(=O)c2ccc(C)cc2)C1 (centres undefined) | x | -2% | 7% | -4.7%
Clc1cc(NCc2cccs2)ccc1N1CCOCC1 | 3 | -49% | 1% | 0.3%
CN(C)c1ccc(/C=N/NC(=O)c2ccccn2)cc1 | -4 | 1% | u | u
CC#CCNCc1ccccc1 | 3 | 0% | 0% | -0.6%
NS(=O)(=O)c1cc([N+](=O)[O-])ccc1NCc1cccnc1 | x | -3% | 0% | -3.9%
O=C1CN(C(=O)CCN2CCOCC2)C(c2ccccc2)c2cc(Br)ccc2N1 (centres undefined) | 1 | 8% | -10% | 1.5%
O=C(CC1NC(=O)NC1=O)Nc1ccccc1 (centres undefined) | -4 | -7% | -13% | 1.4%
CCOC(=O)N1CCN(c2ccc([N+](=O)[O-])cc2F)CC1C (centres undefined) | 4 | 0% | -8% | -1.0%
O=C(CN1CCN(C/C=C/c2ccccc2)CC1)NCc1ccc(Cl)cc1 | -9 | 13% | -8% | 0.1%
CCCS/C(N)=N/N=C/c1ccccc1O | 1 | -41% | -8% | -2.4%
O=C(Nc1ncn[nH]1)c1cccc(S(=O)(=O)N2CCOCC2)c1 | 5 | 0% | 6% | -2.1%
O=C(Cc1noc2ccccc12)Nc1ccc(Cl)cc1 | -3 | -64% | 5% | -4.3%
COCCn1c(=S)[nH]c2sc3c(c2c1=O)CCC(C)C3 (centres undefined) | x | -2% | 9% | 8.9%
N#Cc1ccc(Cn2ccnc2C(=O)Nc2ccccc2)cc1 | 0 | -19% | 0% | -2.9%
CCOC(=O)c1cc(C(=O)OCC)c(=O)[nH]c1C | 0 | 2% | 34% | -2.6%
Cc1cccc(N2CCN(C(=O)CCC(=O)N3CC(C)Oc4ccc(C)cc43)CC2C)c1 (centres undefined) | x | 3% | -6% | 1.4%
C/C(=N\NC(=O)Cc1cccn1C)c1ccc([N+](=O)[O-])cc1 | -2 | 2% | -16% | -3.6%
Cc1ccc(C(=O)Nc2ccc(C(=O)N/N=C/c3ccccn3)cc2)cc1 | x | 0% | u | -1.8%
CC(NCc1ccc(S(N)(=O)=O)cc1)C(=O)Nc1cccc(Cl)c1 (centres undefined) | 3 | 1% | 20% | 6.4%
COC(=O)c1c(C)n(-c2ccccc2)c2ccc(O)cc12 | -8 | 11% | -11% | -0.3%
O=C(O)C1C2CCC(O2)C1C(=O)Nc1ccc(Br)cc1F (centres undefined) | x | x | 13% | -2.1%
COc1ccc(CC(=O)NCC2CCCN(Cc3cc(OC)cc(OC)c3)C2)cc1 (centres undefined) | x | 1% | -10% | 0.4%
S=C(NC12CC3CC(CC(C3)C1)C2)N1CCCC1 | 1 | -27% | 4% | -4.2%
Cc1c(C(=O)NC(C)c2ccccn2)oc2c(Cl)cccc12 (centres undefined) | x | x | 4% | 2.5%

Profiles, looked up by structure. Values in the order: GLA inh pH 4.5, miR-21 FLuc, Rango release inh, Rango-impB inh
Results for CC(NCc1ccc(S(N)(=O)=O)cc1)C(=O)Nc1cccc(Cl)c1 (centres undefined) → 3, 1%, 20%, 6.4%
Results for CCOC(=O)c1c(CC(C)C)csc1NC(=O)COC(=O)C1=NNC(=O)CC1 → x, x, -6%, u
Results for O=C1CN(C(=O)CCN2CCOCC2)C(c2ccccc2)c2cc(Br)ccc2N1 (centres undefined) → 1, 8%, -10%, 1.5%

Back to the main list with the 4 entries that preceded the break.
Compound | GLA inh pH 4.5 | miR-21 FLuc | Rango release inh | Rango-impB inh
O=C(O)C1C2CCC(O2)C1C(=O)Nc1ccc(Br)cc1F (centres undefined) | x | x | 13% | -2.1%
COc1ccc(CC(=O)NCC2CCCN(Cc3cc(OC)cc(OC)c3)C2)cc1 (centres undefined) | x | 1% | -10% | 0.4%
S=C(NC12CC3CC(CC(C3)C1)C2)N1CCCC1 | 1 | -27% | 4% | -4.2%
Cc1c(C(=O)NC(C)c2ccccn2)oc2c(Cl)cccc12 (centres undefined) | x | x | 4% | 2.5%
COc1ccc(NC(=O)c2ccc3ccccc3c2)cc1NS(=O)(=O)c1ccc(F)cc1 | 4 | 0% | -7% | -3.6%
CCOc1ccc(C2=CSC3=NCCN23)cc1[N+](=O)[O-] | x | 0% | -1% | -0.8%
COc1ccc(OC)c(N(CC(=O)NCCSCc2ccc(C)cc2)S(C)(=O)=O)c1 | x | 2% | 6% | 10%
CCC(CC)C(=O)Nc1ccc(C)cc1O | 4 | -2% | 7% | -0.7%
Cc1nc2c3ccccc3nc(NNC(=O)CCC(=O)NCCN3CCN(c4ccccc4)CC3)n2n1 | x | 2% | 18% | 0.1%
CCC(Oc1ccccc1)C(=O)N(C)CC(=O)N(CC(C)C)c1c(N)n(CC(C)C)c(=O)[nH]c1=O (centres undefined) | x | x | 58% | 1.2%
Cc1ccc(NC(=O)CN(C)C(=O)/C=C/c2cccs2)cc1 | 6 | -18% | 1% | -1.7%
COc1ccccc1NC(=S)N1CCC(NC(=O)C23CC4CC(CC(C4)C2)C3)CC1 | 8 | 3% | 6% | 2.2%
O=C(NCCc1ccc(C(F)(F)F)cc1)C1CCC(=O)N(CCCc2ccccc2)C1 (centres undefined) | x | 13% | -3% | -1.7%
O=C(/C=C/c1ccccc1)N/C(=C/c1ccccc1)C(=O)Nc1ccccc1O | 4 | -14% | u | u
Cc1ccc(-n2nnnc2SCC(=O)NC2CCS(=O)(=O)C2)c(C)c1 (centres undefined) | x | x | 0% | 3.4%
Cc1cccc(NC(=O)CCS(=O)(=O)c2ccccc2)c1 | x | -9% | 4% | 5.0%
O=C1CCN(c2ncccc2[N+](=O)[O-])CC1 | 0 | 0% | 12% | 3.1%
CSCCC(NC(=O)c1ccccc1Cl)C(=O)N1CCN(c2ccccn2)CC1 (centres undefined) | x | x | 10% | 2.1%
O=C(c1cnc(Cl)c(Cl)c1)N1CCN(S(=O)(=O)c2ccc3ccccc3c2)CC1 | x | x | 0% | 5.3%
O=C(NCCCO)/C(=C\C=C\c1ccccc1)NC(=O)c1ccccc1Cl | 1 | -4% | -10% | 0.8%
O=C(CSc1nc2ccccc2c(=O)n1Cc1ccc(C(=O)NC2CC2)cc1)NCc1ccco1 | -12 | 11% | -2% | 3.4%
O=C(O)CSc1cc(NS(=O)(=O)c2ccc(Cl)cc2)c2ccccc2c1O | x | 27% | -9% | -0.7%
Cc1onc(-c2ccccc2)c1C(=O)Nc1sc2c(c1C(N)=O)CCC2 | 4 | 0% | -25% | u
CS(=O)(=O)N(Cc1ccc(Cl)cc1)c1ccc(C(=O)NCc2ccccn2)cc1 | 5 | 22% | -1% | -2.7%
O=C(COc1ccccc1Br)NC(=O)NC1CCCC1 | x | x | 5% | 2.1%
COc1ccc(CC(=O)n2[nH]c(=O)cc(C)c2=O)cc1OC | -12 | -2% | -2% | -1.6%
CCc1nnc(NC(=O)C(C)N2C(=O)C3C4C=CC(C4)C3C2=O)s1 (centres undefined) | -10 | 1% | -5% | -0.4%
COc1ccc(C(C)(C)NC(=O)C2CCC(=O)N(CCCN3CCCC3=O)C2)cc1 (centres undefined) | x | -3% | 1% | 0.8%
CN(C)CCCN(C(=O)COc1ccc(Cl)cc1)c1nc2ccc(F)cc2s1 | -5 | -17% | u | u
CN(C)CCCNc1ccc(-c2cc(Nc3cccc(Cl)c3)ncn2)cn1 | -1 | -9% | -2% | -3.8%
COc1ccc(CCNC(=O)C2CCCN2C(=O)Nc2cccc(C(C)=O)c2)cc1OC (centres undefined) | 5 | -7% | 5% | -0.1%
CC(=O)Nc1ccc(-c2csc(N/N=C(/C)c3ccccc3)n2)cc1 | -8 | -11% | -22% | 0.5%
CCOC(=O)CSc1n[nH]c(NC(=O)CC)n1 | -4 | -2% | 19% | 4.1%
COC(C[C@H](O)CC(=O)[C@@H](C)OCc1ccccc1)OC | x | x | 5% | 0.9%

Rewritten field by field: 3 of the compounds above
> Cc1cccc(NC(=O)CCS(=O)(=O)c2ccccc2)c1
  GLA inh pH 4.5: x
  miR-21 FLuc: -9%
  Rango release inh: 4%
  Rango-impB inh: 5.0%

> O=C1CCN(c2ncccc2[N+](=O)[O-])CC1
  GLA inh pH 4.5: 0
  miR-21 FLuc: 0%
  Rango release inh: 12%
  Rango-impB inh: 3.1%

> CSCCC(NC(=O)c1ccccc1Cl)C(=O)N1CCN(c2ccccn2)CC1 (centres undefined)
  GLA inh pH 4.5: x
  miR-21 FLuc: x
  Rango release inh: 10%
  Rango-impB inh: 2.1%

Continued:
Below each compound: GLA inh pH 4.5 | miR-21 FLuc | Rango release inh | Rango-impB inh
O=C(NC1CC1)C1=C[C@@H](c2c[nH]c3ccccc23)C[C@@H](OCc2ccc(CO)cc2)O1
 : -23 | 10% | -17% | u
O=C(NC1CC(=O)N(c2ccc3c(c2)OCCO3)C1)N1CCC(O)CC1 (centres undefined)
 : x | x | 19% | -0.1%
CCCc1[nH][nH]c(=O)c1C(c1ccccc1)C(C#N)C#N (centres undefined)
 : -14 | -7% | 0% | -0.2%
CCCCCn1c(CN2CCN(CCO)CC2)nc2c1c(=O)n(C)c(=O)n2C
 : 6 | -7% | -9% | -3.3%
C=CCNC(=O)C(C)N1C(=O)c2ccccc2C1=O (centres undefined)
 : 0 | 0% | -13% | 1.1%
CC(=O)NCC(=O)N(C)C(C(=O)Nc1ccc(C(C)C)cc1)c1ccccc1 (centres undefined)
 : 0 | -3% | 26% | -4.6%
CCn1c(-c2nn(-c3ccccc3)ccc2=O)n[nH]c1=S
 : 6 | 3% | 2% | -0.4%
O=S(=O)(Nc1ccc(S(=O)(=O)N2CCCC2)cc1)c1ccc(F)cc1F
 : x | x | -9% | 7.3%
Cc1ccc(NC(=O)Cn2nnc(C(=O)NCc3ccco3)c2N)c(C)c1
 : x | -37% | -3% | -1.3%
CNc1ncnc(Sc2nc(N)nc3nc[nH]c23)c1[N+](=O)[O-]
 : x | x | -2% | 0.8%
CCOc1cc(S(=O)(=O)NCCN2CCOCC2)c(C)cc1C
 : -7 | -7% | -2% | -0.4%
O=[N+]([O-])c1cccc(N(CC(O)CN2CCCC2)S(=O)(=O)c2ccccc2)c1 (centres undefined)
 : x | -3% | -1% | -1.7%
COc1cccc(N2[C@@H](CC(C)=O)c3ccccc3S2(=O)=O)c1
 : x | x | -1% | -6.0%
